Source: PubChem BioAssay
LASV entry inh: Lassa virus entry inhibition; Lassa virus pseudotype entry inhibition, cell reporter; control for the full effect not named in the record; actives 1.2% (n = 300,000); AID 540256; Potency, µM (top dose mostly 37.9 µM), inactives show at the highest dose activity change, negative = inhibition, most hits filed as inhibitors; active means well fitted inhibition curve with a large enough effect; inconclusive means small, poorly fitted or top-dose-only effect, or effect the other way; inactive means flat fitted curve, though single readings scatter; tested in HEK293 cells; further: on the % scale 0 is the no-effect control and ±100 the full control effect; nearly all actives have a fitted effect of over 50% in size; luciferase read-out
Cruzain inh Det: cruzain (T. cruzi) inhibition with detergent; AID 1478; Potency, µM, for inactives: max response, negative = inhibition, hits mostly inhibitors; P25779; purified cruzain, Z-FR-AMC fluorescence, 0.01% Triton; actives 0.43% (n = 200,000); active means well fitted curve in the direction sought with a large enough effect; inconclusive means small, poorly fitted or top-dose-only effect, or another doubt; inactive means no such curve, though single readings can be large; an effect the other way counts as inactive or inconclusive;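 further: plate controls were neutral wells for no effect and buffer without enzyme for full effect; nearly all actives have a fitted effect of over 40% in size; top concentration of the series not given in the record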
Target sequence (P25779 123-467 limits assumed): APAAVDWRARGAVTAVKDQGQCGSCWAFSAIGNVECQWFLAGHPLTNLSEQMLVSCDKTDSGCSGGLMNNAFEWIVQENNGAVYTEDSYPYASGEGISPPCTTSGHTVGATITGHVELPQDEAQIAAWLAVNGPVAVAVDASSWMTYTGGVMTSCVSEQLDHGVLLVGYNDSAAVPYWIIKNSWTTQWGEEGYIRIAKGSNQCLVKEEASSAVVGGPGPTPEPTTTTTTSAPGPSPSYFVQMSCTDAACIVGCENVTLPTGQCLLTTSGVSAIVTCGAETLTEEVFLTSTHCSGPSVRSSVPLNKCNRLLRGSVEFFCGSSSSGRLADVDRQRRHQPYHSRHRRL
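Z-FR-AMC hydrolysis (2 uM substrate) by cruzain (1.5 nM) monitored kinetically at ex 360/em 450 nm after 15 min room-temperature compound exposure; 0.01% Triton X-100, pH 5.5, 5 mM DTT.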
RE007 growth inh: less growth of the S. pombe RE007 Vpr strain. S. pombe RE007 Vpr strain, BacTiter-Glo ATP luminescence, 24 h; control for the full effect not named in the record. Potency, µM (highest dose often 92.2 µM), without a hit: top-dose activity change, negative = less growth. actives 0.21% (n = 360,000); active = well fitted falling curve with a large enough effect; inconclusive = small, poorly fitted or top-dose-only effect; inactive = no such curve, though single readings can be large or run the other way;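 further: on the % scale 0 is the no-effect control and ±100 the full control effect; nearly all actives have a fitted effect of over 50% in size; the assay follows cell death caused by Vpr and the record does not say whether a fall means rescue or toxicity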
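Fission yeast RE007 carrying one integrated HIV-1 vpr copy, seeded at OD 0.01 in PMG+AL medium with 23 nL pinned compound. Grown 24 h at 30 degrees; viability read by BacTiter-Glo luminescence after 5 min.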
NS1 function inh: blocks influenza NS1 protein function; S. cerevisiae slowed by influenza A NS1, growth recovery by OD600; Potency, µM (series often up to 46.1 µM), inactives show top-dose activity, positive = more growth; actives 0.4% (n = 270,000); further: actives are rising curves; nearly all actives have a fitted effect of over 50% in size
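A cell-based growth assay was used: compounds that relieve NS1-induced slow growth of budding yeast raise OD600. Assay medium was yeast nitrogen base with ammonium sulphate and -URA supplement, pH 6.0, with 2% galactose.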
SARS PLpro yeast: SARS-CoV PLP inhibition in yeast | Potency, µM (series often up to 32.9 µM), inactives show top-dose activity, positive = growth rescue | actives 0.19% (n = 330,000) | S. cerevisiae expressing SARS-CoV PLpro, growth rescue; control for the full effect not named in the record | AID 485353; further: 0% is about no effect; nearly all actives have a fitted effect of over 55% in size; growth read by luminescence after 48 h
Marburg entry inh: blocks Marburg virus binding to or entry into cells; actives 1.8% (n = 300,000); AID 540276; Potency, µM (series often up to 37.8 µM), without a hit: top-dose activity change, negative = inhibition, hits mostly inhibitors; Marburg virus pseudotyped entry inhibition, cell reporter; control for the full effect not named in the record; about a third of the inactives were read at about 46 µM; active = well fitted inhibition curve with a large enough effect; inconclusive = small, poorly fitted or top-dose-only effect, or effect the other way; inactive = flat fitted curve, though single readings scatter; tested in HEK293 cells; about a fifth of its hits are not listed in these tables; further: on the % scale 0 is the no-effect control and ±100 the full control effect; luciferase read-out
Cruzain inh noDet: blocks cruzain activity in detergent-free assay; P25779; purified cruzain, Z-FR-AMC fluorescence, no detergent; Potency, µM, without a hit: max response, negative = inhibition, most hits filed as inhibitors; actives 2.3% (n = 200,000); active means well fitted curve in the direction sought with a large enough effect; inconclusive means small, poorly fitted or top-dose-only effect, or another doubt; inactive means no such curve, though single readings can be large; an effect the other way counts as inactive or inconclusive;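 further: plate controls were enzyme without inhibitor for no effect and buffer without enzyme for full effect; nearly all actives have a fitted effect of over 40% in size; top concentration of the series not given in the record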
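Detergent-free condition (0.00005% Triton X-100) in acetate buffer pH 5.5 with DTT. 1.5 nM enzyme and compound were pre-mixed 15 min, then 2 uM Z-FR-AMC substrate added; reaction progress from fluorescence change between first and third reads (60 s).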
2A StopGo: lowers the luciferase signal of an FMDV 2A StopGo reporter; AID 1159524; Potency, µM (series often up to 57.9 µM), for the others: at the top dose signal change, negative = less light; human cells with a luciferase reporter of 2A StopGo recoding; control for the full effect not named in the record; actives 1.2% (n = 410,000); active = well fitted falling curve with a large enough effect; inconclusive = small, poorly fitted or top-dose-only effect; inactive = no such curve, though single readings can be large or run the other way; tested in HEK293T cells; further: on the % scale 0 is the no-effect control and ±100 the full control effect; nearly all actives have a fitted effect of over 45% in size; luciferase light after 4 h
* marks the source's active call; other numbers are inactive results; u = inconclusive; x = no result given; & = joins results of further samples; [ ] = dose if it differs, or a comment. Unless noted, the call rests on the fitted dose curve; in most records, active means well fitted rising curve with a large enough effect; inconclusive means small, poorly fitted or top-dose-only effect; inactive means no such curve, though single readings can be large or run the other way. Potency means the concentration at half of the fitted maximal effect.

SMILES	LASV entry inh	Cruzain inh Det	RE007 growth inh	NS1 function inh	SARS PLpro yeast	Marburg entry inh	Cruzain inh noDet	2A StopGo
O=C(CC1CCCCC1)NCc1ccccc1	-4%[46.1 µM]	x	2%	-1%	-5%	u	x	2%
CC(=O)NN1C(=O)/C(=C/c2ccc(Br)o2)SC1=S	0%	-16%	0%	-2%	24%	-9%	2%	u
CCN(CC)c1ccc(NC(=O)c2cnn3c(C(F)F)cc(-c4ccccc4)nc23)cc1	27%[46.1 µM]	-1.5%	x	x	x	0%[46.1 µM]	-8%	-24%
COc1ccc(CN(C)CC(=O)Nc2cc(OC)c([N+](=O)[O-])cc2C)c(OC)c1	u	-0.2%	-13%	-6%	u	u	2%	-23%
CN(CCc1ccccn1)c1ncnc2[nH]ncc12	-1%	0.4%	-6%	-1%	0%	u	-1%	40%[activator]
CCN(CC(=O)Nc1c(F)cccc1F)C(=O)c1ccc(OCC(=O)N2CCOCC2)c(OC)c1	-10%	x	-3%	x	x	-15%[46.1 µM]	x	5%
CCc1noc(-c2ccc(N3CCCCC3)c([N+](=O)[O-])c2)n1	-10%[46.1 µM]	-4.9%	x	x	x	-9%[46.1 µM]	1%	7%
CC1CCN(c2ncnc3ccccc23)CC1	0%	-2.5%	10%	-11%	-3%	-1%	-3%	u
CC(C)(C)OC(=O)NCC(=O)NCC(=O)OCc1ccccc1	0%	1.8%	-13%	-4%	-2%	u	-3%	-9%
O=C(Oc1ccc2ccc(O)cc2c1)c1ccccc1Cl	12%	x	-48%	-44%	-13%	29%	x	76%[activator]
CC(C)(C)c1ccc(OCc2ccc(C(=O)Nc3cccnc3)o2)cc1	u	x	9%	0%	-10%	u	x	8%
CSc1ccccc1NC(=O)c1csc(C)c1	x	x	-19%	-1%	0%	x	x	25%
COc1ccc(Br)cc1CNC(=O)CN1CCSc2ccccc21	u	-7.3%	x	x	x	x	-5%	0%
Cc1ccccc1OCC(=O)O/N=C(\N)Cc1ccc(Cl)cc1	3%	-3.2%	-19%	-9%	-6%	0%	-1%	-5%
COc1cccc(/C=C/c2ccccn2)c1O	x	x	-21%	-32%	-1%	x	x	-7%
Cc1onc(-c2ccccc2Cl)c1C(=O)NC1CCCCCC1	-21%[46.1 µM]	x	1%	-3%	0%	-9%[46.1 µM]	x	1%
O=C1CCSc2cccc3cccc(c23)N1	-7%	-4.2%	-9%	2%	12%	-5%	-7%	x
COC(=O)c1ccccc1NC(=O)Cn1nc2n(C)c3ccccc3n2c(=O)c1=O	13%	-6.2%	x	-3%	-8%	7%	-9%	x
Cc1ccc(-c2nnc(Nc3ccc(C(N)=O)cc3)c3ccccc23)cc1S(N)(=O)=O	-20%[46.1 µM]	-7.6%	x	x	x	x	-7%	14%
CC1=C(C)CC(C(=O)NC2CCN(C(C)C)CC2)C(C(=O)O)C1 (configuration not stated)	x	x	-7%	3%	0%	x	x	-24%
Cc1ccc(NC(=O)c2ccc(OC(=O)CCN3C(=O)c4ccccc4C3=O)cc2)cc1	19%	2.5%	-11%	1%	0%	u	u	48%[activator]
CC(=O)Nc1cccc(-c2cn3cccnc3n2)c1	-5%[46.1 µM]	-14%	x	x	x	x	-14%	2%
O=C1OCCN1C(=O)[C@H]1[C@H](c2ccc(F)cc2)C(c2ccc(F)cc2)=NN1c1ccccc1	-1%	-3.5%&-15%	-11%	u	-17%	8%	u	-27%
Cc1cc(C(=O)CSc2nncs2)c(C)n1Cc1ccco1	4.5µM*	x	4%	x	1%	6.3µM*	x	-22%
Cc1ccc(NC(=O)c2cccnc2)c([N+](=O)[O-])c1	x	x	-17%	6%	1%	x	x	18%
SMILES	LASV entry inh	Cruzain inh Det	RE007 growth inh	NS1 function inh	SARS PLpro yeast	Marburg entry inh	Cruzain inh noDet	2A StopGo
COc1ccc(/C=N/N(C)C2=NS(=O)(=O)c3ccccc32)cc1	3%	x	6%	-2%	0%	8%	x	1%
S=c1[nH]c2ccc3ccccc3c2[nH]1	u	x	-2%	-63%	-5%	-3%[46.1 µM]	x	-13%
N#C/C(=C\c1c(N2CCCCC2)nc2ccccn2c1=O)C(=O)NCc1ccco1	1%	-2.9%	-11%	-8%	-5%	-29%	-18%	-27%
Cc1oc2nc(SCC(=O)NC3CCCCC3)nc(N)c2c1C	u	x	2%	-1%	x	31%	x	-4%
Cc1ccc(-c2nn(C)c(=O)c3ccccc23)cc1CNC(=O)c1ccco1	-1%	0.2%	0%	-1%	1%	4%	-3%	-20%
CC(C)(C)c1ccccc1OCC(=O)NCc1ccccc1	x	x	-10%	-5%	2%	x	x	-2%
O=C(Nc1cccc(/C=C/c2ccccn2)c1)c1ccc(-n2cncn2)c([N+](=O)[O-])c1	u	x	-1%	x	-1%	u	x	u
COc1ccc2nc(NC(=O)CSc3nnc(N)s3)sc2c1	4%	0.9%	-7%	11%	2%	27%	-7%	15%
Cc1cc(C)c(OCC(=O)OC(C)C(=O)N2CCc3ccccc32)c(C)c1 (configuration not stated)	10%	x	3%	x	-10%	18%	x	-21%
CCCNC(=O)/C(C#N)=C1\N=C(NC(=O)c2ccco2)c2ccccc21	x	x	-20%	-27%	3%	x	x	0%
CSc1ccc(-c2nc(CSCC(=O)NCCCN3CCCC3=O)c(C)o2)cc1	x	x	3%	-6%	0%	x	x	-13%
CCOc1ccc(CNc2ccc(N3CCOCC3)c(C(=O)O)c2)cc1	11%	0.2%	4%	3%	1%	-6%	4%	-7%
Cn1cccc1/C=C1\CCC/C(=C\c2cccn2C)C1=O	2%	-12%	-19%	-2%	-6%	u	u	-16%
COc1ccc(OC)c(S(=O)(=O)NCC(c2ccco2)S(=O)(=O)c2ccccc2)c1 (configuration not stated)	0%	0.9%	-21%	x	-2%	5%&5%	6%	39%&54%[activator]
CCOC(=O)Cn1c(-c2ccccc2)cc(SC)c(C#N)c1=O	9%[46.1 µM]	x	-11%	1%	0%	16%[46.1 µM]	x	-25%
CC1CC(C)CN(S(=O)(=O)N2CCCC(C(=O)NCCc3ccccc3)C2)C1 (configuration not stated)	x	x	2%	9%	-1%	x	x	-14%
CCC(=O)NC(c1ccc(N(C)C)cc1)c1c(O)ccc2ccccc12 (configuration not stated)	11%[46.1 µM]	x	-9%	1%	0%	-1%[46.1 µM]	x	0%
CCCc1nnc2n1N=C(c1ccc([N+](=O)[O-])cc1)CS2	2%	x	1%	-1%	0%	-11%	x	-15%
COC/C=C/C1=CC2=CC(=O)C(C)(OC(=O)c3cnc4ccccc4n3)C(=O)C2=CN1CCCCO (configuration not stated)	x	x	5%	u	-2%	u	x	-15%
Brc1ccc(/C=N/N2CCN(C3c4ccccc4-c4ccccc43)CC2)s1	4%	7.8%	0%	1%	9%	0%[46.1 µM]	13µM*	-19%
c1ccc(C2Nc3ccccc3-c3nc4ccccc4n32)nc1 (configuration not stated)	u	11%	1%	-5%	12%	u	3%	14%
CCC(C)NC(=O)c1cc(CC(C)C)on1 (configuration not stated)	11%	0.3%	-6%	u	-12%	34%	-12%	44%[activator]
O=C(CSc1ccc(-c2cccs2)nn1)N1CCCCCC1	-11%	-4.1%	-15%	1%	-35%	13%	-11%	22%
CCCCCC1=NN2C(=O)CC(=O)N=C2S1	x	x	15%	0%	6%	x	x	-4%
CCn1ncc(C2=NOC(C(=O)Nc3ccc4c(c3)OCO4)C2)c1C (configuration not stated)	4%	-0.3%	6%	-11%	-5%	u	7%	-20%
COc1ccc(COC(=O)CCS(=O)(=O)c2ccc(C)cc2)cc1F	5%	x	1%	x	-1%	u	x	-13%
CCn1c(SCC(O)c2ccccc2)nnc1-c1ccccc1 (configuration not stated)	-16%	1.2%	4%	5%	0%	u	-8%	28%
CCOC(=O)N1CCC2(CC1)C(C#N)=C(N)Oc1c2sc2nc(C)cc(C)c12	u	-6.0%	11%	4%	1%	u	17%	x
Cc1cc([N+](=O)[O-])cc2c1NCC1CC=CC21 (configuration not stated)	1%	-1.2%	u	-5%	-15%	u	4%	-6%
Cc1nnsc1C(=O)Nc1ccccc1	27%	-3.9%	0%	4%	2%	-4%	-2%	-10%

Sorted by molecular weight (high to low): some entries from above
SMILES	LASV entry inh	Cruzain inh Det	RE007 growth inh	NS1 function inh	SARS PLpro yeast	Marburg entry inh	Cruzain inh noDet	2A StopGo
COC/C=C/C1=CC2=CC(=O)C(C)(OC(=O)c3cnc4ccccc4n3)C(=O)C2=CN1CCCCO (configuration not stated)	x	x	5%	u	-2%	u	x	-15%
O=C(Nc1cccc(/C=C/c2ccccn2)c1)c1ccc(-n2cncn2)c([N+](=O)[O-])c1	u	x	-1%	x	-1%	u	x	u
CCOC(=O)N1CCC2(CC1)C(C#N)=C(N)Oc1c2sc2nc(C)cc(C)c12	u	-6.0%	11%	4%	1%	u	17%	x
Cc1ccc(-c2nn(C)c(=O)c3ccccc23)cc1CNC(=O)c1ccco1	-1%	0.2%	0%	-1%	1%	4%	-3%	-20%
COc1ccc2nc(NC(=O)CSc3nnc(N)s3)sc2c1	4%	0.9%	-7%	11%	2%	27%	-7%	15%
CCCNC(=O)/C(C#N)=C1\N=C(NC(=O)c2ccco2)c2ccccc21	x	x	-20%	-27%	3%	x	x	0%
CCCc1nnc2n1N=C(c1ccc([N+](=O)[O-])cc1)CS2	2%	x	1%	-1%	0%	-11%	x	-15%
Cc1cc([N+](=O)[O-])cc2c1NCC1CC=CC21 (configuration not stated)	1%	-1.2%	u	-5%	-15%	u	4%	-6%
CCC(C)NC(=O)c1cc(CC(C)C)on1 (configuration not stated)	11%	0.3%	-6%	u	-12%	34%	-12%	44%[activator]

The order is random; overall some 4.5% were active at least once.
